Screens (PubChem)
Cruzain inh noDet – blocks cruzain activity in detergent-free assay; purified cruzain, Z-FR-AMC fluorescence, no detergent; P25779; 200,000 tested, 2.3% active; Potency, µM, without a hit: max response, negative = inhibition, usual class: inhibitors; AID 1476; active means well fitted curve in the direction sought with a large enough effect; inconclusive means small, poorly fitted or top-dose-only effect, or another doubt; inactive means no such curve, though single readings can be large; an effect the other way counts as inactive or inconclusive;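 further: plate controls were enzyme without inhibitor for no effect and buffer without enzyme for full effect; nearly all actives have a fitted effect of over 40% in size; top concentration of the series not given in the record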
Target sequence (P25779 123-467 limits assumed): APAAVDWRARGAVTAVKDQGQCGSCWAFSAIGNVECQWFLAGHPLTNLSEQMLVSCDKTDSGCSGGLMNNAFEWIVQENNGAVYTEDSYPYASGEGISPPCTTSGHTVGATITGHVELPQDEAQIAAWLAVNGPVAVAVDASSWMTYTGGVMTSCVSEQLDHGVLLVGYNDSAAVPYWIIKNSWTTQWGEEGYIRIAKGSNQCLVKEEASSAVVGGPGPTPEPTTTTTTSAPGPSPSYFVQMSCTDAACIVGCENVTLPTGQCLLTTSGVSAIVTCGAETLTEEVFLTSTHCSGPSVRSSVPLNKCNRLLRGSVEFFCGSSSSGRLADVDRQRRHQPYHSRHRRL
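Detergent-free condition (0.00005% Triton X-100) in acetate buffer pH 5.5 with DTT. 1.5 nM enzyme and compound were pre-mixed 15 min, then 2 uM Z-FR-AMC substrate added; reaction progress from fluorescence change between first and third reads (60 s).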
Cruzain Triton – cruzain (T. cruzi) inhibition with detergent | purified cruzain, Z-FR-AMC fluorescence, 0.01% Triton | AID 1478 | 200,000 tested, 0.43% active | Potency, µM, without a hit: max response, negative = inhibition, hits mostly inhibitors; active means well fitted curve in the direction sought with a large enough effect; inconclusive means small, poorly fitted or top-dose-only effect, or another doubt; inactive means no such curve, though single readings can be large; an effect the other way counts as inactive or inconclusive;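 further: plate controls were neutral wells for no effect and buffer without enzyme for full effect; nearly all actives have a fitted effect of over 40% in size; top concentration of the series not given in the record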
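Z-FR-AMC hydrolysis (2 uM substrate) by cruzain (1.5 nM) monitored kinetically at ex 360/em 450 nm after 15 min room-temperature compound exposure; 0.01% Triton X-100, pH 5.5, 5 mM DTT.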
LASV entry inh – inhibitors of Lassa virus binding or cell entry | 300,000 tested, 1.2% active | Potency, µM (series often up to 37.9 µM), for the others: top-dose activity change, negative = inhibition, actives largely listed as inhibitors | Lassa virus pseudotype entry inhibition, cell reporter; control for the full effect not named in the record | AID 540256; active means well fitted inhibition curve with a large enough effect; inconclusive means small, poorly fitted or top-dose-only effect, or effect the other way; inactive means flat fitted curve, though single readings scatter; tested in HEK293 cells; further: on the % scale 0 is the no-effect control and ±100 the full control effect; nearly all actives have a fitted effect of over 50% in size; luciferase read-out
Marburg entry inh – blocks Marburg virus binding to or entry into cells; 300,000 tested, 1.8% active; Potency, µM (highest dose often 37.8 µM), inactives show top-dose activity change, negative = inhibition, usual class: inhibitors; Marburg virus pseudotyped entry inhibition, cell reporter; control for the full effect not named in the record; about a third of the inactives were read at about 46 µM; AID 540276; active = well fitted inhibition curve with a large enough effect; inconclusive = small, poorly fitted or top-dose-only effect, or effect the other way; inactive = flat fitted curve, though single readings scatter; tested in HEK293 cells; about a fifth of its hits are not listed in these tables; further: on the % scale 0 is the no-effect control and ±100 the full control effect; luciferase read-out
RE007 growth inh – less growth of the S. pombe RE007 Vpr strain; AID 651644; Potency, µM (doses to about 92.2 µM), for inactives: at the top dose activity change, negative = less growth; 360,000 tested, 0.21% active; S. pombe RE007 Vpr strain, BacTiter-Glo ATP luminescence, 24 h; control for the full effect not named in the record; active = well fitted falling curve with a large enough effect; inconclusive = small, poorly fitted or top-dose-only effect; inactive = no such curve, though single readings can be large or run the other way;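 further: on the % scale 0 is the no-effect control and ±100 the full control effect; nearly all actives have a fitted effect of over 50% in size; the assay follows cell death caused by Vpr and the record does not say whether a fall means rescue or toxicity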
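Fission yeast RE007 carrying one integrated HIV-1 vpr copy, seeded at OD 0.01 in PMG+AL medium with 23 nL pinned compound. Grown 24 h at 30 degrees; viability read by BacTiter-Glo luminescence after 5 min.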
NS1 function inh – influenza NS1 inhibition | S. cerevisiae slowed by influenza A NS1, growth recovery by OD600 | Potency, µM (series often up to 46.1 µM), for inactives: at the top dose activity, positive = more growth | 270,000 tested, 0.4% active | AID 2326; further: actives are rising curves; nearly all actives have a fitted effect of over 50% in size
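OD600 was taken as the measure of yeast growth restored by compound in an NS1-expressing S. cerevisiae strain. Cells had been washed out of glucose medium and diluted 1:100 into galactose -URA medium, pH 6.0.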
2A StopGo – FMDV 2A StopGo reporter, luciferase signal; human cells with a luciferase reporter of 2A StopGo recoding; control for the full effect not named in the record; Potency, µM (top dose mostly 57.9 µM), for inactives: at the highest dose signal change, negative = less light; 410,000 tested, 1.2% active; AID 1159524; active = well fitted falling curve with a large enough effect; inconclusive = small, poorly fitted or top-dose-only effect; inactive = no such curve, though single readings can be large or run the other way; tested in HEK293T cells; further: on the % scale 0 is the no-effect control and ±100 the full control effect; nearly all actives have a fitted effect of over 45% in size; luciferase light after 4 h
SARS PLpro yeast – blocks SARS-CoV papain-like protease in a yeast assay | Potency, µM (titrated, usually from 32.9 µM), for the others: top-dose activity, positive = growth rescue | 330,000 tested, 0.19% active | S. cerevisiae expressing SARS-CoV PLpro, growth rescue; control for the full effect not named in the record; further: 0% is about no effect; nearly all actives have a fitted effect of over 55% in size; growth read by luminescence after 48 h
* = called active by the depositor; ? = inconclusive; . = no result given; & = joins results of further samples; [ ] = remark or other dose. Unless noted, the call rests on the fitted dose curve; in most records, active means well fitted rising curve with a large enough effect; inconclusive means small, poorly fitted or top-dose-only effect; inactive means no such curve, though single readings can be large or run the other way. Potency means the concentration at half of the fitted maximal effect.

cpd | molecule | Cruzain Triton | Cruzain inh noDet | RE007 growth inh | Marburg entry inh | 2A StopGo | SARS PLpro yeast | NS1 function inh | LASV entry inh
1 | CC12CCC(C(=O)N(CC3CO3)C1=O)C2(C)C (stereo not given) | . | . | -7% | -5%[46.1 µM] | -4% | 0% | -1% | 18%
2 | COc1cc(NC(=O)c2cc(S(=O)(=O)N3CCCCC3)ccc2N2CCOCC2)cc(OC)c1OC | . | . | -2% | -2%[46.1 µM] | 2% | . | . | 3%
3 | O=C(Nc1ccccc1OC(F)(F)F)c1ccc([N+](=O)[O-])cc1 | . | . | -26% | -3%[46.1 µM] | 0% | -1% | -4% | 2%
4 | COc1ccc(Cl)cc1S(=O)(=O)N1CCC(C(=O)NCc2ccco2)CC1 | . | . | -10% | 14% | -14% | 20% | 5% | 4%
5 | Nc1nonc1-c1noc(-c2ccccc2Br)n1 | -3.8% | -13% | ? | 5% | 0% | -3% | -7% | ?
6 | CCC(C(=O)OCC(=O)c1c(N)n(CC(C)C)c(=O)n(C)c1=O)c1ccccc1 (stereo not given) | . | . | 2% | -17% | 40µM* | -4% | . | ?
7 | Cc1ccc(NC(=O)NCc2ccccn2)c(C)c1 | . | . | 13% | -10%[46.1 µM] | 6% | 3% | -1% | 7%[46.1 µM]
8 | COc1ccc2cc(C(=O)C3CCCN(C(=O)c4sc(C)nc4C)C3)ccc2c1 (stereo not given) | . | . | 9% | . | -22% | -3% | -6% | .
9 | COc1ccc2c(c1)O/C(=C\c1ccco1)C2=O | . | . | -5% | -11%[46.1 µM] | 56%[activator] | -6% | 15% | -4%
10 | COc1cc(C(=O)N/N=C(\C)c2ccccn2)cc(OC)c1OC | . | . | 6% | ? | -13% | 3% | -4% | ?
11 | COc1ccc2c(c1)c1c(c(=O)n(Cc3ccccc3)c(=O)n1Cc1ccc(C)cc1)n2C | -0.5% | 10% | . | . | 9% | . | . | 5%[46.1 µM]
12 | O=C(COc1ccc(/C=N/NC(=O)c2ccccc2Br)cc1)Nc1ccccc1 | . | . | -10% | ? | -17% | -3% | -10% | ?

cpd | molecule | Cruzain Triton | Cruzain inh noDet | RE007 growth inh | Marburg entry inh | 2A StopGo | SARS PLpro yeast | NS1 function inh | LASV entry inh
13 | Cc1cc(C)cc(C(=O)NCCCc2ccccc2)c1 | . | . | 33% | -19%[46.1 µM] | 0% | -2% | -7% | -4%[46.1 µM]
14 | N/C(Cc1ccc(Cl)cc1)=N\OC(=O)c1ccccc1 | 1.4% | 7% | ? | 13µM* | -6% | -37% | -188% | ?
15 | CC(C)CCN1C(=O)c2ccc(C(=O)Nc3ccccn3)cc2C1=O | . | . | -23% | 26% | 32%[activator] | 2% | -12% | ?
16 | COC(=O)c1cnn(-c2ccc(F)cc2F)c1/C=N/NC(=S)NC(C)(C)C | . | . | ? | ? | 0% | 1% | 1% | -15%
17 | COc1ccccc1NC(=O)CN(C)S(=O)(=O)c1cccc2cccnc12 | -1.1% | 11% | -14% | 4%&4%[46.1 µM] | -15%&-8% | -9% | 7% | .
18 | CCCN(Cc1cc2ccc(C)cc2[nH]c1=O)C(=O)c1ccccn1 | -0.5% | -5% | -8% | ? | -22% | -6% | ? | 6%
19 | Cc1ccc(C(=O)NCc2ccncc2)cc1S(=O)(=O)N1CCOCC1 | . | . | -1% | 26%[46.1 µM] | 22% | 0% | -4% | 11%[46.1 µM]
20 | Cc1cccc2sc(NC(=O)C3CCN(S(=O)(=O)c4cc([N+](=O)[O-])ccc4Cl)CC3)nc12 | -3.9% | 20µM* | 0% | 6.3µM* | ? | -16% | 24% | .
21 | Cc1ccc(NC(=O)CSc2nc3c(c(=O)[nH]2)CCC3)cc1C | 2.4% | ? | 10% | 2% | 20% | 6% | 6% | 15%
22 | CCCn1c(SCC(=O)Nc2cccc(C)n2)nnc1-c1ccco1 | -1.7% | 10% | -15% | -1% | -7% | 1% | 0% | -25%
23 | COc1ccc2nc(NC3=NCCC3)sc2c1 | -2.2% | -12% | -27% | ? | 26% | -3% | -37% | -5%
24 | CC(C)(C)NC(=O)COC(=O)c1c2c(nc3ccccc13)CCC2 | . | . | 0% | -3%[46.1 µM] | -21% | -3% | -31% | -25%

Excerpt: nos. 12 to 21
cpd | molecule | Cruzain Triton | Cruzain inh noDet | RE007 growth inh | Marburg entry inh | 2A StopGo | SARS PLpro yeast | NS1 function inh | LASV entry inh
12 | O=C(COc1ccc(/C=N/NC(=O)c2ccccc2Br)cc1)Nc1ccccc1 | . | . | -10% | ? | -17% | -3% | -10% | ?
13 | Cc1cc(C)cc(C(=O)NCCCc2ccccc2)c1 | . | . | 33% | -19%[46.1 µM] | 0% | -2% | -7% | -4%[46.1 µM]
14 | N/C(Cc1ccc(Cl)cc1)=N\OC(=O)c1ccccc1 | 1.4% | 7% | ? | 13µM* | -6% | -37% | -188% | ?
15 | CC(C)CCN1C(=O)c2ccc(C(=O)Nc3ccccn3)cc2C1=O | . | . | -23% | 26% | 32%[activator] | 2% | -12% | ?
16 | COC(=O)c1cnn(-c2ccc(F)cc2F)c1/C=N/NC(=S)NC(C)(C)C | . | . | ? | ? | 0% | 1% | 1% | -15%
17 | COc1ccccc1NC(=O)CN(C)S(=O)(=O)c1cccc2cccnc12 | -1.1% | 11% | -14% | 4%&4%[46.1 µM] | -15%&-8% | -9% | 7% | .
18 | CCCN(Cc1cc2ccc(C)cc2[nH]c1=O)C(=O)c1ccccn1 | -0.5% | -5% | -8% | ? | -22% | -6% | ? | 6%
19 | Cc1ccc(C(=O)NCc2ccncc2)cc1S(=O)(=O)N1CCOCC1 | . | . | -1% | 26%[46.1 µM] | 22% | 0% | -4% | 11%[46.1 µM]
20 | Cc1cccc2sc(NC(=O)C3CCN(S(=O)(=O)c4cc([N+](=O)[O-])ccc4Cl)CC3)nc12 | -3.9% | 20µM* | 0% | 6.3µM* | ? | -16% | 24% | .
21 | Cc1ccc(NC(=O)CSc2nc3c(c(=O)[nH]2)CCC3)cc1C | 2.4% | ? | 10% | 2% | 20% | 6% | 6% | 15%

(cont.)
cpd | molecule | Cruzain Triton | Cruzain inh noDet | RE007 growth inh | Marburg entry inh | 2A StopGo | SARS PLpro yeast | NS1 function inh | LASV entry inh
25 | CN(C(=O)COC(=O)c1cncc(Br)c1)C1CCS(=O)(=O)C1 (stereo not given) | . | . | 5% | 5%[46.1 µM] | -5% | -1% | . | -1%
26 | Cc1c(C(=O)Nc2ccc(S(=O)(=O)Nc3ncccn3)cc2)oc2ccc(F)cc12 | . | . | 1% | 6% | -4% | 5% | 2% | -6%
27 | Cc1c(Cl)cccc1NC(CC(=O)c1ccccc1)C(=O)OCC(=O)c1cccs1 (stereo not given) | -5.7% | -11% | ? | -12% | 45%[activator] | -29% | -25% | 6%
28 | COc1cccc(OC)c1C(=O)Nn1c(-c2cccs2)nc2ccccc2c1=O | -3.6% | -15% | -5% | -4% | 1% | 4% | -21% | 0%
29 | CCn1c2ccccc2c2cc(NC(=O)C(C)Oc3ccc(OC)cc3)ccc21 (stereo not given) | 0.4% | 25µM* | -8% | ? | -18% | 0% | 23% | -11%
30 | CC12CN3CC(C)(CN(C1)C3c1ccc3c(c1)OCO3)C2O (stereo not given) | . | . | 10% | 3% | -17% | 1% | ? | .
31 | COc1ccc(C(c2nnnn2C2CCCC2)N2CCN(C3CCCC3)CC2)cc1OC (stereo not given) | 1.1% | -4% | 3% | -2%&-28% | -7% | 7% | 0% | 1%
32 | Cn1c(=O)c2c(nc(N/N=C3\CCCc4ccccc43)n2Cc2ccc(F)cc2)n(C)c1=O | -6.7% | 13% | 6% | ? | -17% | 5% | 4% | 1%
33 | CCn1c(COc2cccc(OC)c2)nnc1SCC(=O)NCC1CCCO1 (stereo not given) | . | . | -15% | 5%[46.1 µM] | -5% | 1% | 0% | 2%
34 | O=S(=O)(c1ccc2[nH]c3c(c2c1)CCCC3)N1CCCCC1 | . | . | -3% | . | -7% | -9% | -37% | .
35 | NC(=O)CC(NC(=O)OCc1ccccc1)C(=O)O (stereo not given) | 3.2% | 5% | 1% | 11% | -2% | 4% | 1% | 14%
36 | CCc1cccc(CC)c1NC(=O)C(CC)n1nc(C)n2c(cc3cc(C)ccc32)c1=O (stereo not given) | -1.1% | 9% | . | 4%[46.1 µM] | -7% | . | . | 13%[46.1 µM]

cpd | molecule | Cruzain Triton | Cruzain inh noDet | RE007 growth inh | Marburg entry inh | 2A StopGo | SARS PLpro yeast | NS1 function inh | LASV entry inh
37 | CCc1ccc2ncc3c(-c4ccc(C)cc4)nn(CC(=O)NCc4ccccc4)c3c2c1 | -0.9% | 5% | . | . | 0% | . | . | 19%[46.1 µM]
38 | O=C(OCC#CCSc1nc2ccccc2o1)c1ccco1 | -3.6% | 0% | -4% | 9% | 41%[activator] | -7% | . | -31%[14.3 µM]
39 | Cc1ccc(/C=C2\C(=O)NC(=O)N(CC3CCCO3)C2=O)s1 (stereo not given) | . | . | 4% | 7%[46.1 µM] | -5% | 2% | 4% | -11%[46.1 µM]
40 | Cc1cc(C)cc(-n2nnnc2SCC(=O)Nc2cccc(NC(=O)c3ccco3)c2)c1 | 0.5% | -8% | 8% | ? | 0% | 1% | -4% | 1%
41 | Cc1ccccc1Cn1c(CN2CCC(C(=O)NCCc3ccccc3)CC2)cc2ccccc21 | -3.3% | -7% | . | . | 4% | . | . | 2%[46.1 µM]
42 | COc1cc(/C=N/NC(=S)Nc2cccc(C(=O)O)c2)ccc1O | -12% | -8% | -12% | ? | ? | -4% | 2% | ?
43 | CC1(c2ccc(NC(=O)c3ccccc3F)cc2)CC1(Cl)Cl (stereo not given) | . | . | 0% | . | 54%[activator] | -3% | 3% | .
44 | Cc1cccc(C)c1NC(=O)CS(=O)CC(=O)N1CCN(c2ccccc2)CC1 (stereo not given) | . | . | 28% | 2%[46.1 µM] | -8% | 17% | 7% | -20%
45 | COc1ccccc1CCc1nnc(CCC(=O)NC(C)Cc2cccc(C)n2)o1 (stereo not given) | . | . | -5% | . | -4% | 0% | 1% | .

Not a hit list; 4.7% or so of the library scored in one or more.
